Biofilm kill mix: mixture kills Candida albicans biofilm cells; hit rate 0.02% among 120,000; inhibition, % at 7.6 µM; AID 1242; C. albicans biofilm persisters + clotrimazole, fluorescence viability; primary screen in compound mixtures of four per well;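 active = inhibition above 30.3% in the primary screen of four-compound pools, then above 30% when the compound was retested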;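 note: compounds exposed to preformed 24 h biofilms for 48 h; the number belongs to the whole pool; some results filed as inactive read as strong as hits; inactives centre near 12; 0% = biofilm with clotrimazole alone and 100% = kill control; retested singly at about 60 µM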
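Assay system: C. albicans biofilms / Medium: RPMI/MOPS medium, pH 7.0 / Schedule: biofilm formation 24 h, compound exposure 48 h, 37 °C / Measured by: Alamar Blue fluorescence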
Starred values were filed as active, the others as inactive. Some of the compounds tested, so the mix of outcomes need not match the whole.

SMILES | Biofilm kill mix
COc1ccc(NC(=O)C(c2cc3c(cc2[N+](=O)[O-])OCO3)N2CCN(C=O)CC2)cc1 (centres undefined) | 2.1
Cc1noc(C)c1COC(=O)c1ccc(F)c(S(=O)(=O)N2CCCCC2)c1 | 12.2
CCCCC(=O)O[C@H]1CC[C@H]2[C@@H]3CCc4cc(O)ccc4[C@H]3CC[C@]12C | 15.1
COc1ccc(NC(=O)CSc2ncnc3c2sc2ccccc23)c(OC)c1 | 14.7
O=C(CN(C(=O)c1cccc([N+](=O)[O-])c1)C1CCCCC1)Nc1ccc(Cl)c([N+](=O)[O-])c1 | 12.6
CCN(CC)C(=O)Cn1c(=O)n(CCCC(=O)NCc2ccccc2)c(=O)c2sccc21 | 9.4
CC1CCc2c(sc(/N=C/c3cccnc3)c2C(N)=O)C1 (centres undefined) | 5.8
CCC(CC)NC(=O)/C=C/c1cccc([N+](=O)[O-])c1 | 10.4
COc1ccc(S(=O)(=O)n2cnc(C)c2)cc1 | 5.8
CCN(CC)c1ccc(/C=C(\C#N)C(=O)NCc2ccco2)cc1 | 10.0
CC1(C)CC(=O)C(C2C3=C(CC(C)(C)CC3=O)Oc3ccc4ccccc4c32)C(=O)C1 (centres undefined) | -0.7
Cc1ccc2cc(C)c(N3CCC(C)CC3)nc2c1 | 13.3
CS/C(=N/S(=O)(=O)c1ccc(C)cc1)c1ccccc1 | -3.3
CCOc1ccc(N)cc1OC | 12.3
COc1ccc2[nH]c(C(=O)Nc3ccccc3Cl)cc2c1 | 13.0
Cc1nnc(SC(C)C(=O)Nc2c(C)n(C)n(-c3ccccc3)c2=O)n1N (centres undefined) | -6.8
CCCn1c(O)c(N=NC(=O)c2ccco2)c2ccccc21 | 10.4
NS(=O)(=O)c1ccc(CCNC(=O)c2ccco2)cc1 | 13.3
CN(CC(=O)Nc1ccc(S(=O)(=O)N(C)C)cc1)Cc1ccc(C(F)(F)F)cc1 | 4.9
COc1ccc(NC(=O)C2CCC(CNS(=O)(=O)c3cccs3)CC2)cc1OC (centres undefined) | 16.9
Cc1ccc([N+](=O)[O-])cc1Nc1nc(N2CCOCC2)nc(N2CCOCC2)n1 | 7.1
O=C(NCC1CCCCC1)c1cc([N+](=O)[O-])ccc1N1CCOCC1 | 3.6
CCOC(=O)C1CCCN(c2c(NCCC(C)C)c(=O)c2=O)C1 (centres undefined) | 23.3
CCCC/C(O)=C1\C(=O)CCCC1=NCCc1c(C)[nH]c2ccc(OC)cc12 | 25.4
CCOC(=O)C1=NNC2C(=O)N(Cc3ccccc3)C(=O)C12 (centres undefined) | 6.8
Cc1onc(C(=O)N2CCN(C(c3ccccc3)c3ccccc3)CC2)c1[N+](=O)[O-] | 22.5
O=C(O)c1cc(=O)[nH]c2c(Cl)cccc12 | 12.7
Cn1c(N)c(S(=O)(=O)NCc2ccccc2Cl)c(=O)n(C)c1=O | 13.3
COc1ccc(Cn2c(O)c(C=Nc3ccccc3)c3ccccc3c2=O)cc1 | 8.5
CC1(C)Cc2nc3sc4c(N5CCCC5)nnnc4c3cc2CO1 | 10.7
O=C(/C=C/c1ccccc1)N(Cc1cccc(Cl)c1)C1CCS(=O)(=O)C1 (centres undefined) | 19.0
C=CCN1C(=O)C(CC(=O)Nc2ccc(OCC)cc2)N(Cc2ccccn2)C1=S (centres undefined) | 9.1
Cc1ccc2cc(C=O)c(Cl)nc2c1 | 13.1
CCOC(=O)c1ccc(NC(=O)c2ccccc2C)cc1 | 4.6
CCOC(=O)C(NC(C)=O)(Nc1ccc(S(=O)(=O)Nc2ccncn2)cc1)C(F)(F)F (centres undefined) | 8.9
Cc1oc2cc([N+](=O)[O-])c(O)c([N+](=O)[O-])c2c1C(=O)c1ccc(Cl)cc1 | 27.6
Cc1cc(=O)[nH]c(SCC(=O)Nc2ccc(F)c([N+](=O)[O-])c2)n1 | 18.4
CC(=O)N1CCN(c2ccc(NC(=S)NC(=O)COc3ccc(C(C)(C)C)cc3)cc2)CC1 | 13.1
Cc1ccnc(NC(=O)C(C)n2cc([N+](=O)[O-])cn2)c1 (centres undefined) | 20.0
Cc1cc(C)c2ccc3c(C)c(C)n(C)c3c2n1 | -1.6
COc1ccc(N=NC2=C(O)CC(C)(C)CC2=O)c(OC)c1 | 12.0
Cc1ccc(/C=N/OC(=O)c2c(C)noc2-c2snnc2C)cc1 | 19.5
Cc1cc(N2CCCC2=O)cc(C)c1S(=O)(=O)NCCOc1ccc(C(C)(C)C)cc1 | 15.3
CC(C)(CCO)NC(=S)NC1CC2C=CC1C2 (centres undefined) | 21.8
O=C(CN1CCN(Cc2ccccc2)CC1)N/N=C/c1ccccc1F | 13.1
CCCCNC(=O)CSc1nc(COc2ccccc2)nc2ccccc12 | -2.4
O=C(CNS(=O)(=O)/C=C/c1ccccc1)OC1CCOC1=O (centres undefined) | -10.3
COc1cc(/C=N/NC(=O)CCn2nnc3ccccc32)ccc1O | 8.1
O=C(C1=C[C@@H](c2ccc(Br)cc2)C[C@@H](OCCCCO)O1)N1CCN(Cc2ccccc2)CC1 | 19.6
Cn1c(SCC(=O)Nc2ccc(Cl)cc2)nc(O)cc1=O | 11.3

Next part:
SMILES | Biofilm kill mix
O=C(NC(=S)Nn1cnc2c(cnn2-c2ccccc2)c1=O)c1ccccc1 | 18.4
CCOC(=O)c1sc(=NC(=O)c2ccccc2)n(C)c1C | 9.3
Cn1c(=O)c2c(nc(Sc3ccccc3N)n2C)n(C)c1=O | 21.2
C=CCn1c(C(C)(C)C)nc2ccccc21 | 18.0
Cc1cccc(NC(=O)C2CCN(S(=O)(=O)c3cccc4nsnc34)CC2)c1 | 7.7
CC(CCc1ccccc1)NC(=O)CSc1ccccc1 (centres undefined) | 11.3
COc1ccc(NC(=O)c2oc3cc(C)c(C)cc3c2C)c(OC)c1 | 15.5
Cc1csc(SCC(=O)NC(C)c2ccc(F)cc2)n1 (centres undefined) | 11.9
CC1CC(C)CN(C(=O)c2ccc(NC(=O)c3ccc(=O)[nH]c3)cc2)C1 (centres undefined) | 7.1
Nn1cc(-c2ccccc2)nc1SCC(=O)NCCc1ccccc1 | 15.1
CCOC(=O)N1CCN(C(=O)C2CCN(S(=O)(=O)c3ccc(OC)cc3)CC2)CC1 | -5.7
O=C(CNc1cccc(C(F)(F)F)c1)N/N=C/c1cccc(Br)c1 | 12.6
CC1CC(=O)Nc2ccccc2N1S(=O)(=O)c1ccc(Cl)cc1 (centres undefined) | 15.8
Cc1nn(CC(=O)OCC(=O)NC(C)c2ccccc2)c(C)c1[N+](=O)[O-] (centres undefined) | 6.4
Nc1cc(C(=O)c2ccccc2)ccc1N1CCOCC1 | 11.9
Cc1ccc(NCC(=O)c2ccc([N+](=O)[O-])cc2)cc1 | 9.0
COc1cccc2sc(NN)nc12 | 12.4
COc1cc(NC(C(=O)Nc2cccc(C(C)=O)c2)c2ccccc2)cc(OC)c1OC (centres undefined) | 14.8
O=C(COc1ccccc1C(=O)Nc1ccccc1)c1ccc(F)cc1 | 18.8
COc1cc2c(cc1OC)C(c1ccccc1)=NCC2 | 13.1
Cc1ccc(SCC(=O)n2nc(C)cc2C)cc1 | 14.3
CC(C)(C)NS(=O)(=O)c1ccc(OCC(=O)NCc2ccco2)cc1 | 2.7
COc1ccc(-n2c(CCc3ccccc3)nnc2SCC(=O)c2ccc(Cl)cc2)cc1 | 13.9
O=C(C[n+]1cccc(CO)c1)Nc1nc2ccccc2s1 | 10.8
NC(=NCCc1c[nH]c2ccccc12)NS(=O)(=O)c1ccc(F)cc1 | 16.7
CCn1c(=O)c([N+](=O)[O-])c(N2CCOCC2)c2ccccc21 | 19.3
O=C1CCN1C1(C(=O)NC2CCCCC2)CCCC1 | 21.1
O=C(O)c1ccccc1-c1ccccc1C(=O)Nc1cccc(Br)c1 | 22.4
COc1ccc(C(C)NC(=O)c2ccc([N+](=O)[O-])cc2)cc1OC (centres undefined) | 10.8
O=C(COc1ncnc2ccccc12)Nc1cccc(S(=O)(=O)N2CCOCC2)c1 | 10.1

A draw from above in order of count of non-hydrogen atoms, low to high:
SMILES | Biofilm kill mix
CCOC(=O)C1CCCN(c2c(NCCC(C)C)c(=O)c2=O)C1 (centres undefined) | 23.3
O=C(NCC1CCCCC1)c1cc([N+](=O)[O-])ccc1N1CCOCC1 | 3.6
O=C(CN(C(=O)c1cccc([N+](=O)[O-])c1)C1CCCCC1)Nc1ccc(Cl)c([N+](=O)[O-])c1 | 12.6

Going on with the list.
SMILES | Biofilm kill mix
CCOC(=O)c1ccc(COc2ccc(C(C)C)cc2)o1 | 4.8
Cc1n[nH]c(C)c1CCNCc1ccc(OCC(O)CN2CCCCC2)cc1 (centres undefined) | -2.6
Cc1noc(C)c1CCC(=O)N1CCCC(CCC(=O)NCc2ccc(F)c(F)c2)C1 (centres undefined) | 31.3
Cc1cc(/C=C(/C#N)c2nc3ccccc3[nH]2)c(C)n1-c1cc(C(=O)O)cc(C(=O)O)c1 | 2.7
COC(=O)c1ccc(NC(=O)[C@H](C)NC(N)=O)cc1 | 25.9
CC(C)CN1C(=O)c2ccc(NC(=O)c3ccco3)cc2C1=O | 24.7
C=C(C)CNC(=S)N/N=C/c1ccccc1OCC(=O)O | 0.5
CC(=O)N1CCN(c2cc3c(cc2F)c(=O)c(C(=O)O)cn3C2CC2)CC1 | -2.0
O=C(Cn1c2ccccc2c(=O)c2ccccc21)Nc1cccc(F)c1 | -1.7
COc1ccc(-c2csc(NC(=O)CSc3n[nH]c(N)n3)n2)cc1 | 7.7
O=c1c2c([nH]c3ccccc13)CCCCC2 | 19.4
C=C(C)C(=O)Nc1cccc(C2=NOC3(C2)C[C@@H](C(N)=O)N(C(=O)[C@H]2CCC(=O)N2)C3)c1 (some centres undefined) | 15.2
O=C(CSc1nnc(-c2ccccc2Br)o1)Nc1nncs1 | -4.5
Cc1cc(C)c(NC(=S)N(Cc2cccnc2)Cc2ccco2)c(C)c1 | 15.1
CC1CN(Cc2c(O)ccc3c2oc(=O)c2ccccc23)CC(C)O1 (centres undefined) | 14.0
CCNC(=O)N1CCCC(C(=O)c2ccc(OC)c(OC)c2)C1 (centres undefined) | 16.6
CCOc1ccc(C(=O)NCC(=O)OCc2c(C)noc2C)cc1OCC | 18.1
CCOP(=O)(OCC)C(NC(=O)Nc1ccccc1)C(N)=O (centres undefined) | 14.0
COc1ccc(CCNC(=O)c2c(C)nc3ccccn23)cc1OC | -0.4
COC(=O)c1sccc1NC(=O)CSc1ccccc1N | 16.3
COc1ccc(C2=NN(C(=O)CN3CCCCC3)C(c3ccc(C)cc3)C2)cc1 (centres undefined) | -11.6
C=CCNc1nc(Cl)ncc1F | 9.3
COc1cc(S(=O)(=O)Nc2ccc(Br)cc2)ccc1N | 24.9
COC(=O)CCCC1=CC2=CC(=O)C(C)(OC(=O)c3cccs3)C(=O)C2=CN1Cc1ccccc1 (centres undefined) | 11.0
CCCCN1C(=O)c2ccc(C(=O)Nc3ccccc3N3CCOCC3)cc2C1=O | -6.5
c1ccc(C2CC(c3cccs3)=NN2c2ccccc2)cc1 (centres undefined) | 12.7
COc1ccc(OC)c(CCNC(=O)Cn2cccc2C(=O)c2ccccc2C)c1 | 7.1
CSCCC(NC(=O)c1ccc([N+](=O)[O-])cc1Cl)C(=O)OCC(=O)C12CC3CC(CC(C3)C1)C2 (centres undefined) | 7.3
CCCc1cc(=O)oc2c(C)c3occ(C)c3cc12 | 16.5
CCO[C@H]1OC(C(=O)NCc2ccccc2)=C[C@@H](c2ccc(C(F)(F)F)cc2)[C@@H]1CCCO | 20.2
Cc1ccc(/C=C2/Sc3ccccc3N(CC(=O)NCCCOC(C)C)C2=O)cc1 | 13.5
O=S(=O)(Oc1ccc(Cl)cc1)c1cccc2cccnc12 | 26.3
O=C(CCc1ccccc1)NC(=S)Nc1ccc2c(c1)C(=O)OC2 | -31.5
O=S(=O)(Nc1ccc(N2CCCCC2)cc1)c1ccccc1F | 13.2
O=C(Cc1cccc(C(F)(F)F)c1)NCc1ccc(Cl)cc1 | 13.5
CCOC(=O)Nc1nn(-c2ccc(C)cc2)c(=O)c(C#N)c1C | 5.0
Cc1ccc(NC(=O)CSc2nc(N)c(-c3ccccc3)c(=O)[nH]2)cc1Cl | 14.0
CCOC(=O)c1oc2ccc(Cl)cc2c1NC(C)=O | 14.3
CC(=O)Cn1c(CN2CCCCC2)nc2ccccc2c1=O | 9.3
CCCCNC(=O)CSc1nc2ccccc2n1S(=O)(=O)c1ccc(Cl)cc1 | 14.7

Reprinted at random: two records from the list
SMILES | Biofilm kill mix
Cc1ccc(NC(=O)CSc2nc(N)c(-c3ccccc3)c(=O)[nH]2)cc1Cl | 14.0
O=C(Cc1cccc(C(F)(F)F)c1)NCc1ccc(Cl)cc1 | 13.5

4 of these compounds, reformatted:
O=S(=O)(Oc1ccc(Cl)cc1)c1cccc2cccnc12
  Biofilm kill mix: 26.3

O=C(CCc1ccccc1)NC(=S)Nc1ccc2c(c1)C(=O)OC2
  Biofilm kill mix: -31.5

O=S(=O)(Nc1ccc(N2CCCCC2)cc1)c1ccccc1F
  Biofilm kill mix: 13.2

O=C(Cc1cccc(C(F)(F)F)c1)NCc1ccc(Cl)cc1
  Biofilm kill mix: 13.5

Further entries:
SMILES | Biofilm kill mix
N/C(=N\N=C/c1ccc(Br)cc1)N/N=C\c1ccc(Br)cc1 | 15.9
CCc1ccc(Oc2nc([N+](=O)[O-])nn2C)cc1 | 3.5
Cc1nc2sc(C(c3ccco3)N3CCN(c4cccc(Cl)c4)CC3)c(O)n2n1 (centres undefined) | 9.9
COc1cc2c(cc1O)[C@@H]1Cc3cc(OC)c(OC)cc3C(C2)N1C | 16.3
O=C(/C=C/c1ccco1)NC(=S)Nc1cccc([N+](=O)[O-])c1 | 10.3
COc1ccc(C(=O)NCc2ccc(Cl)c(Cl)c2)cc1OC | 7.5
Cc1ccc(C(C)C)c(OCCCNCc2cccnc2)c1 | 11.9
Cc1ccc(Cn2c(=O)c3ccccc3n3nc(C)cc23)cc1 | 5.4
O=C(O)CCC(=O)c1cccc2ccccc12 | 13.8

From PubChem BioAssay
